PV pol inh: inhibitors of poliovirus RNA polymerase binding and polymerization. AID 588519. P03300. 150,000 compounds, 0.66% hits. poliovirus polymerase elongation, fluorescence polarization; active compounds read low. % elongation, % (compound at 16.7 µg/mL); in the data active means % elongation below about 90%; further: some results filed as inactive read as strong as hits
Target sequence (P03300 1749-2209 limits assumed): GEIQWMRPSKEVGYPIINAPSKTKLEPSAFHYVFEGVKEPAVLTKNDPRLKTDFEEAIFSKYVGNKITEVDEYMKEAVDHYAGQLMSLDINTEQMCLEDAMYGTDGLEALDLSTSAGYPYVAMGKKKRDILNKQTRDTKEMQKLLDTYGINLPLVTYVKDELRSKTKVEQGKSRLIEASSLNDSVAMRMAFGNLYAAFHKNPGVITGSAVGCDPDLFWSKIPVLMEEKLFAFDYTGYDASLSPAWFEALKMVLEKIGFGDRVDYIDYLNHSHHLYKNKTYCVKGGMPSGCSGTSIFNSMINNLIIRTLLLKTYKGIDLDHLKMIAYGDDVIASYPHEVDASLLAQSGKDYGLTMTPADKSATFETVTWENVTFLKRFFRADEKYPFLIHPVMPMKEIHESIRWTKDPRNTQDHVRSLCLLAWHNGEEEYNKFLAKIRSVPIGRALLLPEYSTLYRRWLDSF
Mtb MenB inh: inhibitors of Mycobacterium tuberculosis MenB enzyme | P9WNP5 | MenB enzyme assay, absorbance read-out; some hits fall short of the stated cut | inhibition, %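 (about 12 µg/mL by stock and volumes)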 | 100,000 compounds, 0.43% hits | AID 540299;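 active means mean of two replicates above 30%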;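 further: 0% = no compound and 100% = wells with inactive enzyme; the first replicate is given; strong numbers were not always called active; inactives centre near -10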
Mtb MbtI inh: blocks the Mycobacterium tuberculosis siderophore enzyme MbtI; P9WFX0; purified MbtI enzyme, fluorescence intensity read-out; inhibition, %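 (about 17 µg/mL by stock and volumes)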; 100,000 compounds, 0.89% hits; AID 493033;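 active means above 50% in both replicates, above 80% if mildly self-fluorescent; inactive means the rest, strongly fluorescent compounds included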;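 further: 0% = mean of negative and 100% = mean of positive controls; one replicate is shown; some compounds called inactive have numbers as strong as hits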
Target sequence (P9WFX0 whole entry, looked up): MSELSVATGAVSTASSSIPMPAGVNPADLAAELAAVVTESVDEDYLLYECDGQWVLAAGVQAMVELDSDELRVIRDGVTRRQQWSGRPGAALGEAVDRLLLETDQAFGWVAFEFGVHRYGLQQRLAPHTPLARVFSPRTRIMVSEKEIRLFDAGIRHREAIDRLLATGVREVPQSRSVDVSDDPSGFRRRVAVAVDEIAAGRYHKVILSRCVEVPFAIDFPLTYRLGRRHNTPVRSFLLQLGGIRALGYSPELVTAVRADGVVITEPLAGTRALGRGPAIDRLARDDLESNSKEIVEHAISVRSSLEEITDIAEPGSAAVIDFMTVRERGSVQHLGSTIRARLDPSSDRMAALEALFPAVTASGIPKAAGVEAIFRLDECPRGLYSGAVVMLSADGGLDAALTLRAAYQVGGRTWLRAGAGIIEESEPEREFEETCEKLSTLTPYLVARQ
PV pol inh intensity: second read-out of PV pol inh, no call of its own (marks repeat the call); % elongation; measured here: total intensity read-out; formula for this scale not given here;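 total fluorescence in place of polarization; lower means less elongation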
* hit, by the source's call; nt = not tested or not shown.

Under each structure: PV pol inh, PV pol inh intensity, Mtb MenB inh, Mtb MbtI inh
> O=C(Nc1ccccc1NS(=O)(=O)c1ccc(F)cc1)C1CCC1
→ 102, 96, nt, -5
> CN1CCN(Cc2ccc[nH]2)CC1
→ 101, 99, 22, nt
> CN1C(=O)C(S(=O)(=O)c2ccccc2)C2CC1(C)Oc1ccccc12 (stereo not given)
→ 100, 102, 11, -1
> CCOC(=O)c1cc(C(O)(C(F)(F)F)C(F)(F)F)c(/N=C/N(C)C)o1
→ 101, 98, -13, 8
> O=C(O)C1CC(=O)N(Cc2ccc(F)cc2)C1 (stereo not given)
→ 103, 108, -10, 0
> CCS(=O)(=O)N1CCc2cc(C(=O)COC(=O)c3ccc(-n4cnnn4)cc3)ccc21
→ 100, 107, -7, 7
> CC(C)(C)C(=O)COC(=O)c1ccccc1C(=O)c1ccccc1
→ 101, 102, nt, -4
> CCNC(=S)N1CCn2cccc2C1c1cccs1 (stereo not given)
→ 101, 102, -29, -12
> Cc1c(N=C2SCC(=O)N2c2c(C)n(C)n(-c3ccccc3)c2=O)c(=O)n(-c2ccccc2)n1C
→ 102, 104, 11, 3
> Clc1cc(Cl)cc(-c2nnc(N3CCCC3)o2)c1
→ 100, 104, -6, 94
> O=C(CC1=NS(=O)(=O)c2ccccc2N1)N1CCN(c2ccccc2)CC1
→ 102, 103, -15, -17
> CC(=O)N1C=CN(C(C)=O)C(c2cn(C)c3ccccc23)C1c1cn(C)c2ccccc12 (stereo not given)
→ 99, 100, -65, 4
> O=S(=O)(NC1CC1)c1ccc2c(c1)OCCO2
→ 102, 100, -15, 8
> O=C(CN1CCCCCC1)NCc1ccccc1
→ 101, 105, 5, -14
> Cc1ccc(C2=NN(C(=O)CCC(=O)O)C(c3cn(-c4ccccc4)nc3-c3ccc(C)cc3)C2)cc1 (stereo not given)
→ 100, 105, -15, -9
> CCOC(=O)c1oc2ccccc2c1CSc1nnc(Cc2cccs2)n1CCc1ccccc1
→ 110, 111, -26, -61
> CC(O)Cn1cnc2c1c(=O)n(C)c(=O)n2C (stereo not given)
→ 100, 99, -1, -4
> Cc1c(C(=O)OC(C)C(=O)N(C)Cc2ccccc2)oc2ccccc12 (stereo not given)
→ 99, 88, 4, 53
> N#C/C(=C(/O)Cn1nc(C(=O)O)c2ccccc2c1=O)c1nc2ccccc2s1
→ 73, 231, -17, 0
> CN1C2CCC1CC(OC(=O)CCN1CCCC1)C2 (stereo not given)
→ 98, 103, -21, -26
> O=C1NC2(CCN(C(=O)Nc3ccccc3)CC2)Oc2ccccc21
→ 102, 99, -7, 2
> c1nc(N2CCC2)c2ccsc2n1
→ 104, 109, -8, 5
> Cc1cc(C)c(C(=O)C/C(=N/O)C(F)(F)F)c(=O)[nH]1
→ 103, 99, 10, 8
> NS(=O)(=O)c1ccc(C(=O)Nc2ccc(-c3cn4c(n3)SCC4)cc2)cc1
→ 101, 108, -13, 7
> O=C1NS(=O)(=O)c2ccccc21
→ 100, 98, -12, 1
> Cc1ccc(-n2nnc(C(=O)NCC3CCCO3)c2N)c(C)c1 (stereo not given)
→ 102, 103, -9, -3
> COc1cccc(C(=O)COC(=O)C(C)N2C(=O)C3C4C=CC(C4)C3C2=O)c1 (stereo not given)
→ 101, 99, -20, -4
> NC(=O)CC(=O)NC12CC3CC(CC(C3)C1)C2
→ 102, 103, -18, -6
> C/C(=N\NC(=O)C1CC1)c1ccc(S(=O)(=O)N2CCCC2)cc1
→ 103, 107, -5, -4
> Nc1n(N)c2ccccc2[n+]1CC(=O)c1ccccc1
→ 103, 97, nt, -2
> Cn1c(=O)c2c(ncn2CC(=O)NC2CCSC2=O)n(C)c1=O (stereo not given)
→ 101, 103, 17, -1
> CC(=O)Nc1ccc(S(=O)(=O)n2c(N)c(C#N)c3nc4ccccc4nc32)cc1
→ 103, 109, -49, 103
> CCCN(CCC)C(=O)C[n+]1cccc(/C=N/O)c1
→ 100, 103, 1, 2
> CCN(CC)Cc1cccn1-c1nnc(N2CCCCCC2)s1
→ 103, 105, -5, 12
> Nc1cc(=O)[nH]c(SCCSc2ccccc2)n1
→ 104, 105, -25, -22
> FC(F)(F)c1nnc2sc(-c3cnccn3)nn12
→ 102, 104, 13, -3
> COc1ccc(-c2nc3ncccc3o2)cc1NC(=O)C(C)Oc1ccc(Cl)cc1Cl (stereo not given)
→ 102, 102, 13, 2
> OCc1nc2ccccc2n1CN1CCN(Cc2cccs2)CC1
→ 103, 109, 2, -5
> CCOC(=O)COc1c(C#N)sc2c1c(=O)n(-c1ccccc1)c(=S)n2-c1ccccc1
→ 106, 107, -50, -6
> O=c1cc(-c2ccccc2)[nH]c(=O)[nH]1
→ 103, 103, -1, 0
> CCOC(=O)COc1ccc(C2NC(C(=O)O)CS2)cc1OCC (stereo not given)
→ 100, 100, -19, 2
> N#CCCn1cc(/C=c2\sc3nc4ccccc4n3c2=O)c(-c2ccc(F)cc2)n1
→ 106, 107, -15, 0
> CC1(C(=O)C[n+]2cccc(C(N)=O)c2)CCC(=O)O1 (stereo not given)
→ 103, 100, -56, -22
> CN(CC(=O)Nc1ccc(F)c(F)c1F)C(=O)C1CCCCC1
→ 104, 112, -18, -19
> CCc1ccc(-c2cc3c(=O)n(CC(=O)NCCN4CCOCC4)nc(C)n3n2)cc1
→ 104, 103, -1, nt
> COc1ccc(N2CCN(C(=O)CSc3nnc4c(C)cc5cc6c(cc5n34)OCCO6)CC2)cc1
→ 102, 101, -5, 0
> CN(C)c1ccc(NC(=O)C23CC4CC(C2)CC(n2cnc(Cl)n2)(C4)C3)cc1
→ 101, 101, -12, 3
> COc1ccc2cc(CN(Cc3cccnc3)Cc3nnnn3Cc3ccc(F)cc3)c(=O)[nH]c2c1
→ 101, 102, 26, -32
> CCC(C)c1ccccc1NC(=O)N(C)C (stereo not given)
→ 100, 100, -2, 8
> Cc1[nH]c2cc(C(=O)O)ccc2c1CC(=O)O
→ 99, 100, 4, 85

Quoted at random: 4 records from the list.
Under each structure: PV pol inh, PV pol inh intensity, Mtb MenB inh, Mtb MbtI inh
> CCOC(=O)COc1ccc(C2NC(C(=O)O)CS2)cc1OCC (stereo not given)
→ 100, 100, -19, 2
> COc1ccc(N2CCN(C(=O)CSc3nnc4c(C)cc5cc6c(cc5n34)OCCO6)CC2)cc1
→ 102, 101, -5, 0
> CCc1ccc(-c2cc3c(=O)n(CC(=O)NCCN4CCOCC4)nc(C)n3n2)cc1
→ 104, 103, -1, nt
> CN(CC(=O)Nc1ccc(F)c(F)c1F)C(=O)C1CCCCC1
→ 104, 112, -18, -19

Continued.
Under each structure: PV pol inh, PV pol inh intensity, Mtb MenB inh, Mtb MbtI inh
> CC(C)OC(=O)c1ccc(CN2C(=O)NC(CCc3ccccc3)C2=O)o1 (stereo not given)
→ 104, 108, -6, -5
> O=C(CSc1nc2ccccc2c(=O)n1CCO)N(C1CCCCC1)C1CCCCC1
→ 102, 104, -3, -7
> CCCNc1c2c(nc3ccccc13)CC(C)(C)CC2=O
→ 100, 101, 1, 1
> Cc1sc2nc(CN3CCCCC3)nc(Cl)c2c1C
→ 100, 93, -27, -3
> Cn1cnnc1SCc1c(Cl)cccc1Cl
→ 105, 106, -21, nt
> c1ccc(CN2CCN(C3CCNCC3)CC2)cc1
→ 102, 103, -30, 3
> N#CCCS(=O)(=O)c1ccc(-c2ccc(S(=O)(=O)CCC#N)cc2)cc1
→ 97, 103, -38, -12
> Cn1c(/C(C#N)=C/C2CC=CCC2)nc2ccccc21 (stereo not given)
→ 102, 104, -20, 29
> CCCCCCCCCCCCCCCC[n+]1ccccc1
→ 100, 101, 3, -63
> O=C(C1=NN(C2CCS(=O)(=O)C2)C(=O)CC1)N1CCc2ccccc2C1 (stereo not given)
→ 104, 109, 1, 1
> Cc1cc(C(=O)NC2CCCC(C)C2C)n(-c2ccccc2)n1 (stereo not given)
→ 101, 108, -8, -19
> CC(C)c1ccc(-c2nc(N3CCCCCC3)[nH]c(=O)c2C#N)cc1
→ 100, 101, -17, -10
> CC1CCc2c(sc(N)c2C(=O)OC(C)C)C1 (stereo not given)
→ 100, 101, -14, nt
> CCN(C(=O)CCn1c(=O)sc2ccccc21)c1ccccc1
→ 103, 102, -7, -3
> C(=N/n1cnnc1)/c1cccc2c1OCCCO2
→ 97, 105, -4, nt
> CC(C)Nc1nc(-c2cccs2)cc(C(F)(F)F)c1C#N
→ 104, 112, -12, -16
> C1=CC(c2cccs2)CC1 (stereo not given)
→ 106, 107, nt, -1
> C=CC1CCC(O)C(N(C)C(=S)Nc2ccccc2)C1 (stereo not given)
→ 103, 102, -20, 13
> Cc1cc2n(n1)C(c1cccc(O)c1O)Nc1c(C)cccc1-2 (stereo not given)
→ 102, 106, 5, -94
> CN1C(=O)/C(=c2\sc3nc4ccccc4n3c2=O)c2ccccc21
→ 99, 104, 7, -4
> CN1CCc2cc3c(c4c2C1Cc1ccccc1-4)OCO3 (stereo not given)
→ 71, 108, -34, 90
> CC1CCCC(NC(=O)c2cccc3c2SCCC3=O)C1C (stereo not given)
→ 103, 105, 8, -14
> CCCN(CCC)Cc1ccc(CNc2nc(-c3ccc(OC)cc3)no2)o1
→ 102, 104, -22, -15
> Cc1cc(-c2nnc(-c3cccc(C(F)(F)F)c3)o2)no1
→ 103, 96, -12, -8
> CC(C)(Oc1ccc(Cl)cc1)C(=O)Nc1nccs1
→ 101, 103, nt, -5
> Cc1ccc(NC(=O)NC(=O)CSc2nnc(Cc3csc(C)n3)o2)c(C)c1
→ 100, 106, 10, -3
> COc1ccc(-c2cn3c(C)c(C(=O)N4CCN(c5ccccc5)CC4)sc3n2)cc1
→ 103, 105, -18, -5
> Cn1c(C(C#N)C(=O)c2cccc(N3C(=O)c4ccccc4C3=O)c2)nc2ccccc21 (stereo not given)
→ 103, 117, 2, -14
> NC(=O)COC(=O)c1cccc2c1-c1ccccc1C2=O
→ 103, 109, -29, -2
> Cc1cc(NC(=O)CNCc2ccccc2)n(-c2nc3ccccc3s2)n1
→ 105, 102, -18, 1
> O=C(CNc1ccc(C(=O)O)cc1)NCc1ccc2c(c1)OCO2
→ 105, 104, -12, 0
> COc1ccc(NC(=O)N2CCN(C(=O)C(Cc3ccc(F)cc3)NC(C)=O)CC2)cc1 (stereo not given)
→ 101, 99, -31, -1
> CS(=O)(=O)Nc1cccc(C(F)(F)F)c1
→ 103, 103, -26, -2
> COc1ccc(C=NCc2ccc(OC)c(OC)c2)cc1OC
→ 108, 113, -8, -8
> Cc1cn(C(=O)c2ccccc2)c(=O)[nH]c1=O
→ 103, 100, -106, -4
> C#CCSc1ccccc1C(=O)O
→ 99, 95, 8, 20
> CCOc1ccc(S(N)(=O)=O)cc1OCC
→ 111, 118, 6, -4
> Cc1noc(C)c1COC(=O)C(C)N1C(=O)c2ccccc2C1=O (stereo not given)
→ 101, 99, -30, 0
> Cc1nc(SCC(=O)c2ccc3[nH]c(=O)[nH]c3c2)c2ccccc2n1
→ 98, 91, -61, 35
> CCC(C(=O)O)n1nnc(-c2ccc(Cl)cc2)n1 (stereo not given)
→ 101, 105, -5, -2

Limited to PV pol inh intensity and Mtb MbtI inh (4 entries from above):
Compound,PV pol inh intensity,Mtb MbtI inh
CC(C)(Oc1ccc(Cl)cc1)C(=O)Nc1nccs1,103,-5
Cc1ccc(NC(=O)NC(=O)CSc2nnc(Cc3csc(C)n3)o2)c(C)c1,106,-3
COc1ccc(-c2cn3c(C)c(C(=O)N4CCN(c5ccccc5)CC4)sc3n2)cc1,105,-5
Cn1c(C(C#N)C(=O)c2cccc(N3C(=O)c4ccccc4C3=O)c2)nc2ccccc21 (stereo not given),117,-14

New compounds follow:
Under each structure: PV pol inh, PV pol inh intensity, Mtb MenB inh, Mtb MbtI inh
> CC(=O)NC(CC(=O)O)c1ccc(F)cc1 (stereo not given)
→ 102, 103, 2, -12
> Cc1cc(C(=O)COC(=O)Cn2cnnn2)c(C)n1CC1COc2ccccc2O1 (stereo not given)
→ 106, 103, -15, -5
> COc1ccc(OCCNC(=O)N2CCOCC2)cc1
→ 101, 102, 11, -12
> COCCCn1c(SCC(=O)N(Cc2ccco2)c2nccs2)nc2sc3c(c2c1=O)CCC3
→ 104, 103, -53, -6
> CC(C)(C)C(=O)CON1C(=O)c2ccccc2C1=O
→ 99, 102, -3, -15
> Cn1c2ccccc2n2c(C(=S)Nc3ccccc3)c(-c3ccccc3)nc12
→ 103, 97, 6, nt
> CC(=O)SCC(Cc1ccccc1)C(=O)NCC(=O)OCc1ccccc1 (stereo not given)
→ 103, 100, -6, -11
> Cc1nc2ccccc2n1C(=O)CCC(=O)O
→ 102, 101, -1, -17
> COc1ccc(Cc2n[nH]c(=S)n2NC(=O)Nc2ccc(C)cc2)cc1
→ nt, nt, 0, 93*
> CCC1(CC)Cc2ccccc2C(c2cc3ccccc3oc2=O)=N1
→ 101, 95, -32, -16
> CSc1nc(N)nc(SC2C=CCCC2)c1C#N (stereo not given)
→ 99, 104, -12, -2
> O=C(Cc1c(F)cccc1Cl)N1CCC2(CC1)OCCO2
→ 98, 100, -23, -4

From PubChem
